Mtb bLac sens: beta-lactam sensitization of Mtb H37Rv. inhibition, % at 25 µM. actives 0.27% (n = 330,000). M. tuberculosis H37Rv growth with meropenem, percent inhibition; hits of this screen are not shown here;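 active means about 74% or more and at least 40 points above the plate without the antibiotic, then above 30% in a dose series; inconclusive means first-round hits that could not be retested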;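 further: growth measured after seven days incubation then overnight dye step; 0% = bacteria only wells and 100% = bacteria with antibiotic; twin plates without the antibiotic show which effects depend on it; some results filed as inactive read as strong as hits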
YopH inh: YopH (Yersinia) phosphatase inhibition. fluorescence Ex485/Em525. inhibition, %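 (about 10 µM by stock and volumes)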. actives 0.16% (n = 140,000). AID 898;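 active means inhibition of 50% or more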;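 further: controls were vehicle for no effect and minimum signal wells for full effect; inactives centre near -20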
Arbovirus inh: arbovirus infection inhibition; arbovirus infection cell-based antiviral screen; inhibition, % at 10 µM; actives 0.37% (n = 200,000);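 active means inhibition from about 30%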;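 further: bluetongue infection of BSR cells; cell survival read as ATP light after 72 h; 0% = infected wells without compound and 100% = uninfected wells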
RecA intein inh: Mtb RecA intein splicing inhibition. P9WHJ3. cell-free RecA intein splicing, fluorescence. inhibition, %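 (about 9 µM by stock and volumes)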. actives 0.75% (n = 290,000). AID 2221; in the data active means inhibition above about 30%; inconclusive means no clear call, values can overlap the other calls;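 further: 0% = vehicle wells and 100% = reference inhibitor control wells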
Target sequence (P9WHJ3 whole entry, looked up): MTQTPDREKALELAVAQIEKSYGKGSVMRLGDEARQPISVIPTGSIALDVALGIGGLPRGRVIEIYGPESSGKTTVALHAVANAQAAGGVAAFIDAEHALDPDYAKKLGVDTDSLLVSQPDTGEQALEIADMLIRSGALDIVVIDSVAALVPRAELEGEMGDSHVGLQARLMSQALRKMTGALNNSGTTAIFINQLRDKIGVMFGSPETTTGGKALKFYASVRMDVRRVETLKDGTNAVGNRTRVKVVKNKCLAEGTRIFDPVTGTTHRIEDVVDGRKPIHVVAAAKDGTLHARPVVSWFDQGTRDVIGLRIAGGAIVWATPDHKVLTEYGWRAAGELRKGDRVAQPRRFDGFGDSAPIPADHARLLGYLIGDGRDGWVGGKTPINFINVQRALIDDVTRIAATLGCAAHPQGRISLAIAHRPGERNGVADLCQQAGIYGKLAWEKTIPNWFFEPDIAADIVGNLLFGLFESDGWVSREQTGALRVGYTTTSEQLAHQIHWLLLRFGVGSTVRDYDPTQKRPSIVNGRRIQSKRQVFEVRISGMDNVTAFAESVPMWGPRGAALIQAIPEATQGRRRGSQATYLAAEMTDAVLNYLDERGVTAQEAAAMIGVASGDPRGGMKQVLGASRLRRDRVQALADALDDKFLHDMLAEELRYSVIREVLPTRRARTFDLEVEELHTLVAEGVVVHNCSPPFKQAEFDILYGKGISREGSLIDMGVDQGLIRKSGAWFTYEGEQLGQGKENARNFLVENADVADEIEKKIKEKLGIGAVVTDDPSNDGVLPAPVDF
Mtb growth: M. tuberculosis H37Rv growth inhibitors, H37Rv strain (AID 1626); M. tuberculosis H37Rv growth inhibition; higher % means a stronger effect; inhibition, % at 10 µM; hits with a dose series show IC50 in µM; actives 0.95% (n = 220,000);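 active means confirmed in a dose series; inconclusive means inhibition above 80% but not taken into the dose series; inactive means below 80% or under 30% at every dose of the series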;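 further: bacteria incubated seven days before Alamar blue readout; 0% = bacteria only wells and 100% = bacteria with antibiotic wells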
Arbovirus inh repeat: further read-out of Arbovirus inh, marked with its call; inhibition, %; measured here: 10K subset replicate screen; many hits read low in the repeat;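 first of two repeat runs on a subset; 0% = infected and 100% = uninfected wells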
* = called active by the depositor; ? = inconclusive; . = no result given. A portion of the library; rates above refer to the full screens.

SMILES	Mtb bLac sens	YopH inh	Arbovirus inh	RecA intein inh	Mtb growth	others
O=C(CCC(=O)Nc1cccc([N+](=O)[O-])c1)N/N=C/c1cccs1	1	.	.	-0.9	.
O=C(CSc1nnc(CCCN2C(=O)c3cccc4cccc(c34)C2=O)n1-c1ccccc1)NCCCN1CCOCC1	-2	-29	0	-1.6	-8%
COc1ccc(N(CC(=O)NC2CCCC2)C(=O)CS(=O)CC(=O)Nc2ccc3c(c2)OCO3)cc1 (centres undefined)	-6	.	-2	-1.7	-6%
O=C(NCS(=O)(=O)c1ccccc1)c1ccccc1	-4	-43	11	.	-4%	Arbovirus inh repeat=4
N#Cc1ccsc1NC(=O)C1CC(=O)N(Cc2ccccc2)C1 (centres undefined)	-1	.	.	-3.3	.
COc1cc2c(c(OC)c1)C(=O)OC(C)CCCC(=O)CCCCC2 (centres undefined)	-2	.	.	-0.7	.
O=C(CSc1nc(=O)n2cc(Cl)ccc2n1)Nc1ccc2c(c1)OCO2	4	.	.	0.1	.
C[N+]1(CC2COC3(CCCCC3)O2)CCCCC1 (centres undefined)	-14	.	.	2.2	-2%
Cc1ccc(NC(=S)N2CCN(Cc3ccccc3)CC2)c(C)c1	-4	-12	3	-0.2	4%
CC(SCc1ccccc1)C(=O)Nc1ccc(F)cc1 (centres undefined)	-2	.	4	2.1	5%
O=C(/C=C/c1ccc(Cl)cc1)c1cccnc1	100	-18	-43	-1.7	2µM*
O=C(CCN1CCOCC1)Nc1cc(C(=O)Nc2ccc(Cl)cc2)ccc1N1CC2CC(C1)c1cccc(=O)n1C2 (centres undefined)	9	.	.	1.0	.
Cc1nn(CC(=O)NCC2CCCO2)c(=O)c2cc3ccccc3n12 (centres undefined)	-3	.	.	-2.3	.
CCCCC(=O)Nc1nnc(S(=O)(=O)N2CCCCCC2)s1	-5	.	.	-1.0	.
C=CCC(C(=O)OC)(C(=O)OC)c1ccc([N+](=O)[O-])cn1	6	-19	-2	0.0	.
CCCn1c(/N=C/c2c[nH]c3ccccc23)nc2ccccc21	7	0	-8	10	11%
Cc1c(C(=O)O)sc2[nH]c(=O)n(Cc3ccccc3)c(=O)c12	2	.	.	-0.4	.
CCSc1nc(N)c2c3c(sc2n1)CCC3	2	-35	-1	-2.5	13%
COc1cc(NC(=O)/C=C/c2ccccc2)c(C(=O)O)cc1OC	-6	.	.	-1.8	-8%
Cc1cccc(-c2cc3c(nn2)-c2ccccc2C3=O)c1	9	4	-17	25	2%
COCCN(C(=O)CCC(=O)Nc1cc(C)on1)C(C(=O)NC(C)(C)C)c1cccc(OC)c1OC (centres undefined)	-7	.	.	0.5	.
CCOc1cc(/C=N/NC(=O)NN(C)c2ncc(C(F)(F)F)cc2Cl)ccc1O	2	.	1	-3.9	4%
Cc1cc(OCC(=O)Nc2cnn(CCCC(=O)O)c2)ccc1[N+](=O)[O-]	1	.	8	0.0	7%
O=C(CCc1nc2ccccc2c(=O)[nH]1)OCC(=O)N1CCN(S(=O)(=O)c2ccccc2)CC1	-3	-41	0	-1.4	-2%
CSc1ccccc1NC(=O)Cc1ccccc1[N+](=O)[O-]	-4	.	3	-0.5	-3%

Remaining list, next part:
SMILES	Mtb bLac sens	YopH inh	Arbovirus inh	RecA intein inh	Mtb growth	others
Cc1ccccc1C(=O)Nc1cccc(NC(=O)Cn2cnc3c(=O)n(C)c(=O)n(C)c32)c1	-15	-2	-26	5.2	-8%
Cc1cc(C)n(-c2cc(N3CCN(C(=O)c4ccccc4C)CC3)ccc2[N+](=O)[O-])n1	-3	-33	.	2.9	16%
CN(CC(=O)NC1CCCCC1)S(=O)(=O)c1ccc(Br)s1	34	3	0	-0.2	1%
CC(C)(C)n1nc2c(c1NC(=O)c1ccc([N+](=O)[O-])cc1)CS(=O)(=O)C2	-3	.	.	-1.1	.
Cc1ccnc(NC(=O)CCC(=O)N(CC(=O)NC2CCCCC2)CC2CCCO2)c1 (centres undefined)	-12	-1	-3	0.7	-2%
CCOc1cc(N2CCOCC2)c(OCC)cc1NCC(=O)N1CCN(Cc2ccccc2)CC1	6	.	.	-3.7	-6%
CC(=O)c1ccc(NC(=O)CCc2nnc3ccc(N4CCCC4)nn23)cc1	-5	.	.	-0.1	.
O=C(CN1CC=C(c2ccccc2)CC1)Nc1cc(Cl)ccc1Cl	1	-40	10	0.3	-1%
O=C(Nc1ccccc1C(=O)N1CCCCCC1)c1ccccc1	-7	.	.	8.1	4%
COc1cccc(OCC(O)CO)c1 (centres undefined)	-1	-36	2	2.0	2%
C/C(=N\Nc1nc2ccccc2s1)c1ccc2c(c1)OCO2	88	-12	-2	0.1	62%
CCCCn1c(N)c(N(CCOC)C(=O)COC(=O)COc2cc(C)c(Cl)cc2C(C)C)c(=O)[nH]c1=O	-3	.	.	-2.6	.
NC(=O)c1ccccc1NC(=O)CSC1=NCCS1	-22	.	.	3.9	.
Cc1[nH]nc(SCC(=O)NCCc2ccccc2)c1[N+](=O)[O-]	3	.	-2	-16	-6%
O=C(NCc1ccco1)C(c1ccccc1)N(C(=O)Cc1cccs1)c1ccccc1F (centres undefined)	-3	28	1	0.4	-7%
COc1ccc2c(c1OC)C(=O)N1C2SC[C@H]1C(=O)NCCC(C)C (some centres undefined)	-5	.	.	-1.0	.
CCN(CC)C(=O)C1CCCN(Cc2cccc(Oc3ccccc3)c2)C1 (centres undefined)	-7	.	.	2.7	7%
Nn1c(SCc2ccc(Br)cc2)nnc1-c1cccnc1	-1	.	.	-0.6	-1%
O=C(NCc1ccccc1F)C1CCC(=O)N(Cc2ccc(Cl)cc2)C1 (centres undefined)	2	.	.	2.0	.
CC(C)CNc1nc(N)c([N+](=O)[O-])c(NCc2ccccc2)n1	2	.	.	0.2	.
CN1CCc2c(n(CC(O)CNCc3ccccc3)c3ccccc23)C1=O (centres undefined)	-5	.	15	9.0	4%
O=C1CN(C(=O)Cn2ncc(Cl)c(Cl)c2=O)c2ccccc2N1	.	.	-30	29	4%
Cc1cc(NC(=O)c2ccc3c(c2)C(=O)N(C)C3=O)no1	-1	-23	0	-3.8	-2%
C=CCOC(=O)C1=C(C)NC(=S)NC1c1cccs1 (centres undefined)	-4	-38	-6	1.4	2%
O=c1c2ccccc2nc2n1C(CSc1ccc(F)cc1)CN2 (centres undefined)	-6	-30	4	-0.2	3%

Part of the list above in order of SMILES length, falling.
SMILES	Mtb bLac sens	YopH inh	Arbovirus inh	RecA intein inh	Mtb growth	others
CC(C)CNc1nc(N)c([N+](=O)[O-])c(NCc2ccccc2)n1	2	.	.	0.2	.
C/C(=N\Nc1nc2ccccc2s1)c1ccc2c(c1)OCO2	88	-12	-2	0.1	62%
Nn1c(SCc2ccc(Br)cc2)nnc1-c1cccnc1	-1	.	.	-0.6	-1%

Back to the main list, starting two compounds before the break.
SMILES	Mtb bLac sens	YopH inh	Arbovirus inh	RecA intein inh	Mtb growth	others
C=CCOC(=O)C1=C(C)NC(=S)NC1c1cccs1 (centres undefined)	-4	-38	-6	1.4	2%
O=c1c2ccccc2nc2n1C(CSc1ccc(F)cc1)CN2 (centres undefined)	-6	-30	4	-0.2	3%
CC(C)N(C(=O)Cn1cnc2cc([N+](=O)[O-])ccc2c1=O)C(C)C	-7	.	4	-9.2	1%
N#Cc1c(N)n(-c2ccccc2N)c2nc3ccccc3nc12	-5	.	.	.	-2%
CN(C(=O)COC(=O)C1CCN(S(=O)(=O)c2c(Cl)cccc2Cl)CC1)c1ccccc1	-10	.	.	5.6	.
Nc1ccccc1C#Cc1cnccn1	0	.	.	-3.4	-5%
CCN(CC(=O)Nc1c(F)cccc1F)C(=O)C1=COCCO1	2	.	.	0.4	.
COc1ccc(-c2ccc(S(=O)(=O)N3CCOCC3)cc2)cc1	-6	-25	7	-0.3	6%
COc1ccc(Cl)cc1NC(=O)NCC1CCN(Cc2cc(C)ccc2C)CC1	26	.	.	2.4	.
O=C(OCc1nnc(-c2ccc(Cl)cc2)o1)c1ccc(O)cc1	4	.	-7	-0.2	1%
COc1ccc(/C=C/C(=O)OCC(=O)N2CC(=O)Nc3ccccc32)cc1	?	-32	-11	0.7	11%
CC1(C)CC(=O)C2(CC3=C(CC(C)(C)CC3=O)O2)C(=O)C1	-6	-52	3	-3.8	-13%	Arbovirus inh repeat=2
Cc1ccc(N(C(=O)c2ccn[nH]2)C(C(=O)NC2CCCC2)c2cccs2)cc1 (centres undefined)	-9	.	-9	-2.3	0%
Clc1cccc(Nc2nc(-c3cccnc3)cs2)c1	2	.	2	0.7	6%
COC(CNC(=O)CC1C(=O)N(Cc2ccccc2)C(C)c2nc3ccccc3n21)OC (centres undefined)	-8	.	7	-0.2	-7%
COc1cc(/C=C/C(=O)Nc2ccc(N3CCCCC3)c(S(=O)(=O)Nc3ccccc3Cl)c2)cc(OC)c1OC	3	-23	18	2.6	38%
COc1cccc(Oc2cc(Cl)nc(N)n2)c1	-11	.	.	2.8	.
CC(NC(=S)NCCCN1CCOCC1)C12CC3CC(CC(C3)C1)C2 (centres undefined)	-8	.	-8	0.2	-9%
CCn1ccnc1CN(C)Cc1nc(-c2ccc3c(c2)OCO3)no1	-4	.	1	1.5	2%
CC(C)NC(=O)c1onc(CSc2ccccc2)c1C(=O)O	11	-147	-2	-5.7	-13%
NC(=O)C1CCN(C(=O)/C=C/c2cc(Br)ccc2F)CC1	-7	.	9	-1.2	-7%
O=C(Nc1cccn(Cc2c(Cl)cccc2Cl)c1=O)c1ccc(Cl)cc1	4	-15	6	-2.0	-12%
COc1ccc2c(C)cc(SCC(=O)Nc3ncc(Cl)cc3Cl)nc2c1	4	-22	6	-1.0	10%
CCOC(=O)c1ccc(N=NN(C)C)cc1	1	.	.	1.0	3%
CCCn1c(SCC(=O)NC2CCCCC2)nnc1-c1cccnc1	7	.	.	-3.0	.
COc1ccc(OC)c(/C=N/NC(=O)c2cc[n+](CC(=O)c3ccccc3)cc2)c1	98	11	-8	1.2	?
COc1ccc(-n2cc(CNCCc3ncc(C)[nH]3)c(-c3ccccc3Cl)n2)cc1	52	.	-33	-0.7	-3%

Continued; it opens with the 2 that closed the last part.
SMILES	Mtb bLac sens	YopH inh	Arbovirus inh	RecA intein inh	Mtb growth	others
COc1ccc(OC)c(/C=N/NC(=O)c2cc[n+](CC(=O)c3ccccc3)cc2)c1	98	11	-8	1.2	?
COc1ccc(-n2cc(CNCCc3ncc(C)[nH]3)c(-c3ccccc3Cl)n2)cc1	52	.	-33	-0.7	-3%
CCOC(=O)c1c(NC(=O)COC(=O)c2cc(OC)c(OC)cc2[N+](=O)[O-])sc(C)c1CC	3	-26	1	-2.3	3%
Cc1ccc(N/C(N)=N/c2nc(CSc3nnc(N)s3)cc(=O)[nH]2)cc1	-2	.	.	0.1	-4%
Fc1ccc(C2=NNC(=NCc3ccccc3)SC2)cc1F	.	.	-11	.	-3%
COc1ccc(/C=N/N2CCN(c3ccccc3OC)CC2)cc1Br	-3	.	.	4.2	.
CCOC(=O)N1CCN(CC(=O)Nc2cc(OCC)ccc2OCC)CC1	-2	-24	-6	.	-3%	Arbovirus inh repeat=-6
O=C(NC1CCCCC1)C(c1ccccn1)N(C(=O)c1csnn1)C1CCCCC1 (centres undefined)	-2	.	-8	6.7	1%
Cc1ccc(-n2c3c(c(=O)[nH]c2=O)C(C(F)(F)F)(C(F)(F)F)NC(=O)N3)cc1	-1	-11	1	-0.1	-1%
Cc1nc(-c2ccccc2)cn(O)c1=O	.	.	4	-0.1	1%
CC(C)(C)OC(=O)N1CCC[C@H]1C(=O)N/N=C/c1cccc2cccnc12	5	.	.	0.4	-3%
c1ccc(-c2nnc(-c3ccccn3)c(-c3ccccn3)n2)nc1	0	.	.	-3.3	0%
O=C(COC(=O)c1cncc(Br)c1)Nc1ccc2c(c1)OCO2	-3	.	4	-1.6	2%
CC(=O)Nc1ccc(NC(=O)C(C)OC(=O)c2cccc(S(=O)(=O)N3CCCCCC3)c2)cc1 (centres undefined)	-1	.	.	-1.6	.
O=[N+]([O-])c1ccccc1N/N=C\c1ccccc1Cl	4	-25	-1	0.0	-12%
CSc1nnc(-c2cccc(NC(=O)c3ccccc3)c2)n1C	-3	.	.	-3.8	-8%
O=C(NC(NC(=S)N1CCOCC1)C(Cl)(Cl)Cl)c1ccc(Cl)cc1 (centres undefined)	4	-37	14	0.6	11%
COc1ccc(N2C(=O)N3[C@H](c4ccc(Cl)cc4)[C@@H]4C(=O)N(C5CCCCC5)C(=O)[C@@H]4[C@]3(Cc3ccc(Cl)cc3)C2=O)cc1	-16	.	.	4.3	.
O=C(NCc1ccccc1Cl)NCc1ccccc1Cl	-2	.	.	-2.2	6%
O=C(CNC(=O)C(c1ccccc1)c1ccccc1)N/N=C/c1ccc(O)c([N+](=O)[O-])c1	-3	-29	1	-1.9	4%
CCOC(=O)NC(=O)/C(C=Nc1ccc(Cl)c(Cl)c1Cl)=C(\C)O	-2	-4	2	-1.2	3%
